# Source: PubChem BioAssay (ICCB-Longwood Screening Facility, Harvard Medical School)
# Polio RdRp inh = inhibitors of poliovirus RNA polymerase binding and polymerization; poliovirus polymerase elongation, fluorescence polarization; hits give low values; % elongation, % (compound at 16.7 µg/mL); 0.66% of 150,000 active; in the data active = % elongation below about 90%; note: some results filed as inactive read as strong as hits
# Target sequence (P03300 1749-2209 limits assumed): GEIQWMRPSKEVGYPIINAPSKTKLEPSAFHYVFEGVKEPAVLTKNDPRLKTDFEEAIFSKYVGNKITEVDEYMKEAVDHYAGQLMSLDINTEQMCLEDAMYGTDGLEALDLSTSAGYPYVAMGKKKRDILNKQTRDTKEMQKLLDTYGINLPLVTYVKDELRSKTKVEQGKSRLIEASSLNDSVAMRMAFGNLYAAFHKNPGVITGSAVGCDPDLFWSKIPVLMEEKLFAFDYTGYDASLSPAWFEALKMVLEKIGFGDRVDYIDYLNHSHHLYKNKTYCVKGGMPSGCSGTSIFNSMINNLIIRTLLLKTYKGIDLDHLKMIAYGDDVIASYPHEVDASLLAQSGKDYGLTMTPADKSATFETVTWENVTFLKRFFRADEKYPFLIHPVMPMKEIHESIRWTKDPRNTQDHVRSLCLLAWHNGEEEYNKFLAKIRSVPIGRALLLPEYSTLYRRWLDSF
# Polio RdRp inh intensity = further read-out of Polio RdRp inh, marked with its call; % elongation; measured here: total intensity read-out; formula for this scale not given here;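 total fluorescence in place of polarization; lower means less elongation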
# Numbers without * were called inactive. Only part of the results is shown. The share of hits here may be higher or lower than overall.
SMILES,Polio RdRp inh,Polio RdRp inh intensity
O=C(NCc1ccccc1)C1CCC(CNS(=O)(=O)c2ccc(Br)s2)CC1 (stereo unspecified),105.0,105.0
O=C(Cn1c(-c2cccs2)cc2ccccc21)NCCCN1CCN(c2ccccc2F)CC1,114.0,110.0
COc1ccc(CNC(=O)C(=O)NCC(c2cccs2)S(=O)(=O)c2ccc(C)cc2)cc1 (stereo unspecified),109.0,112.0
O=C(CN1C(=O)C2(SCC(=O)N2c2ccc(Cl)cc2)c2ccccc21)NCCc1ccccc1 (stereo unspecified),110.0,110.0
CCOc1ccc(-c2cccc(NS(=O)(=O)c3ccc(Cl)s3)c2)nn1,107.0,102.0
COc1ccccc1Nc1sc(C(=O)c2ccc3c(c2)OCO3)c(N)c1S(=O)(=O)c1ccccc1,114.0,120.0
Cc1ccccc1CN1CCCN(CC(=O)Nc2ccc3c(c2)OCCO3)S1(=O)=O,104.0,110.0
Cc1ccc(NC(=O)CSc2nnc(-c3ccc([N+](=O)[O-])cc3)o2)c(C)c1,106.0,107.0
CCN(c1ccccc1C)S(=O)(=O)c1nnc(NC(=O)c2ccco2)s1,112.0,116.0
COc1cc([N+](=O)[O-])ccc1NC(=O)c1nc2ccccc2n(C)c1=O,112.0,116.0
Cc1ccc(-c2nnc(Nc3cccc(C(F)(F)F)c3)c3ccccc23)cc1S(=O)(=O)N1CCOCC1,106.0,104.0
CCC(=O)N1CCc2cc(Br)cc(S(=O)(=O)CCC(=O)NCc3cccc(OC)c3)c21,103.0,107.0
Cc1ccc(Cn2c(=O)n(Cc3nc(-c4ccccc4)no3)c(=O)c3cc4c(cc32)OCO4)cc1,101.0,106.0
COc1ccccc1NC(=O)NCCN1CCN(c2cccc(Cl)c2)CC1,106.0,106.0
CCn1c(=O)cc(SCC(=O)Nc2ccc(C)c(F)c2)c2ccccc21,110.0,112.0
CSCCC(NS(=O)(=O)c1ccc2c(c1)oc(=O)n2C)C(=O)N1CCN(c2cc(C)ccc2C)CC1 (stereo unspecified),104.0,112.0
COc1ccc(OC)c(NC(=O)CS(=O)(=O)Cc2nc(-c3ccc(C)cc3)oc2C)c1,105.0,107.0
CCc1ccc(NC(=O)CN(c2ccc(C)cc2)S(=O)(=O)c2c(C)nn(C)c2C)cc1,104.0,105.0
CC(=O)c1ccc(N2C(=O)N(Cc3cc(C)ccc3C)c3ccccc3S2(=O)=O)cc1,111.0,110.0
O=C(NCCc1ccccc1)c1cc2sccc2n1Cc1ccc(F)cc1,107.0,111.0
CCN(CC)CCNC(=O)CN1C(=O)CSc2ccc(S(=O)(=O)N3CCOCC3)cc21,114.0,111.0
Cc1cccc(NS(=O)(=O)c2c(C)nc3sccn3c2=O)c1C,102.0,94.0
CCN(CC)c1cc(C)c2cc(NC(=O)/C=C/c3ccccc3OC(C)C)ccc2n1,112.0,112.0
COc1ccc(-n2nc3ccc(NC(=O)c4cc5ccccc5o4)cc3n2)cc1Cl,102.0,98.0
COc1cccc(Cn2c(=O)n(-c3ccccc3C)c(=O)c3c2c2cc(C)ccc2n3C)c1,117.0,110.0

# By substructure: the compounds so far with a nitro group on carbon
SMILES,Polio RdRp inh,Polio RdRp inh intensity
Cc1ccc(NC(=O)CSc2nnc(-c3ccc([N+](=O)[O-])cc3)o2)c(C)c1,106.0,107.0
COc1cc([N+](=O)[O-])ccc1NC(=O)c1nc2ccccc2n(C)c1=O,112.0,116.0

# Next section:
SMILES,Polio RdRp inh,Polio RdRp inh intensity
CCCc1nn2c(=O)cc(COc3ccc(/C=C(\C#N)C(=O)Nc4ccccc4)cc3)nc2s1,104.0,106.0
Cc1noc(-c2ccc(-c3noc(-c4cccc(Cl)c4)n3)cc2)n1,110.0,109.0
Cc1ccc(C(=O)Nc2c(C)nc3ccccn3c2=O)cc1,99.0,107.0
CCOC(=O)C1CCN(C(c2ccc(F)cc2)c2sc3nc(-c4ccco4)nn3c2O)CC1 (stereo unspecified),107.0,109.0
CCOc1ccccc1NC(=O)CN1C(=O)CC(c2ccc(C)c(C)c2)=Nc2ccccc21,95.0,105.0
O=C(CSc1ncc(-c2ccccc2)[nH]1)Nc1ccccc1,102.0,106.0
COC(=O)CN1C(C(=O)c2ccccc2)=C(OC(=O)c2ccc(F)cc2)c2ccccc2S1(=O)=O,106.0,108.0
COc1cccc2c1Oc1ncccc1N(C(=O)Nc1cccc(Cl)c1)C2,112.0,115.0
Cn1c(=O)c2c(nc(NCCc3ccccc3)n2Cc2ccc(Cl)c(Cl)c2)n(C)c1=O,111.0,114.0
COc1ccc(OC)c(CCNc2nc3ccccc3c3nc(-c4cccnc4)nn23)c1,103.0,102.0
CCCCCOc1ccc(/C=C/C(=O)Nc2sc(C(C)=O)c(C)c2C(=O)OCC)cc1OC,107.0,113.0
O=S(=O)(c1ccc(Br)cc1)c1nc(-c2cccs2)oc1SCc1ccccc1F,108.0,114.0
Cc1cccn2c(=O)c(C(=O)NC(C)c3ccccc3)c(O)nc12 (stereo unspecified),109.0,114.0
Cc1ccc2nc(COc3ccccc3NC(=O)COc3ccccc3Cl)cc(=O)n2c1,99.0,106.0
COc1ccc(CNc2oc(-c3ccc(COc4ccc(Cl)cc4)o3)nc2C#N)cc1,109.0,100.0
O=C(c1ccc2c(c1)N(Cc1ccccc1)C(=O)c1ccccc1S2(=O)=O)N1CCCCCC1,108.0,111.0
COc1ccc(-c2nc(SCC(=O)NC3CCCC3)c(-c3ccc(F)cc3)[nH]2)cc1OC,109.0,114.0
O=C(Nc1ccccc1C(F)(F)F)c1ccc2oc(=O)c(S(=O)(=O)c3ccc(F)cc3)cc2c1,104.0,106.0
CCOC(=O)c1ccccc1NC(=O)c1sc2nc3n(c(=O)c2c1C)CCCC3,113.0,106.0
Cc1ccc(OCCn2cc(C(=O)c3ccco3)c3ccccc32)cc1C,104.0,106.0
Cc1cccc(N2CCN(CCCNC(=O)c3sc4ncccc4c3-n3cccc3)CC2C)c1 (stereo unspecified),109.0,115.0
CC1=C(c2ccc(C)c(C)c2)S(=O)(=O)N=C1N1CCC(C(=O)NC(C)Cc2ccco2)CC1 (stereo unspecified),112.0,112.0
O=C(CCc1nc(CN2CCN(S(=O)(=O)c3ccc(Cl)cc3)CC2)no1)N1CCCCC1,105.0,95.0
CCOc1ccc(CNCc2c(C(=O)O)c(C)n(Cc3ccc(C)cc3)c2C)cc1,109.0,109.0
Cc1ccc(-n2nc(C(=O)NCCc3cccc(C)c3)c3c4ccccc4n(C)c3c2=O)cc1,102.0,101.0

# Part of the list above, with each value named:
SMILES: CCOC(=O)c1ccccc1NC(=O)c1sc2nc3n(c(=O)c2c1C)CCCC3
  Polio RdRp inh = 113.0 | Polio RdRp inh intensity = 106.0
SMILES: Cc1ccc(OCCn2cc(C(=O)c3ccco3)c3ccccc32)cc1C
  Polio RdRp inh = 104.0 | Polio RdRp inh intensity = 106.0
SMILES: Cc1cccc(N2CCN(CCCNC(=O)c3sc4ncccc4c3-n3cccc3)CC2C)c1 (stereo unspecified)
  Polio RdRp inh = 109.0 | Polio RdRp inh intensity = 115.0
SMILES: CC1=C(c2ccc(C)c(C)c2)S(=O)(=O)N=C1N1CCC(C(=O)NC(C)Cc2ccco2)CC1 (stereo unspecified)
  Polio RdRp inh = 112.0 | Polio RdRp inh intensity = 112.0

# Other entries
SMILES,Polio RdRp inh,Polio RdRp inh intensity
Cc1cc(C)cc(-n2c(SCC(=O)N3CCc4ccccc43)nc3c([nH]c4ccccc43)c2=O)c1,105.0,109.0
COc1cccc(CNC(=O)CN2C(=O)CSc3ccc(S(=O)(=O)N(C)C)cc32)c1,110.0,111.0
Cc1nnc(NC(=O)c2cccn(Cc3cccc(Cl)c3)c2=O)s1,108.0,108.0
Cc1ccccc1NC(=O)CSc1nc(-c2ccccc2C)nc2cc(=O)[nH]n12,104.0,104.0
Cc1ccccc1-c1nnn(CC(=O)Nc2sc3c(c2C#N)CCC(C(C)(C)C)C3)n1 (stereo unspecified),106.0,111.0
Cc1ccc(-n2nc(C)c3c(C)cc(=O)n(CC(=O)NCc4ccc(OC(C)C)cc4)c32)cc1,105.0,100.0
Cc1ccc(C)c(NC(=O)C2CCCN2S(=O)(=O)c2ccc3c(c2)n(C)c(=O)c(=O)n3C)c1 (stereo unspecified),107.0,106.0
Cc1ccc(-n2nc3c(N4CCC(C(=O)NC(C)c5ccccc5)CC4)nnc(C)c3c2C)cc1 (stereo unspecified),114.0,110.0
Cc1cccc(-n2ncc3c(Nc4ccc(Oc5ccc(Cl)cc5)cc4)ncnc32)c1,109.0,108.0
CC1CCN(C(=O)CSc2nc(-c3ccc(C(C)C)cc3)no2)CC1,101.0,98.0
Cc1ccc(C(=O)Nc2nnc(S(=O)(=O)N3CCOCC3)s2)cc1,111.0,108.0
CCc1ccc(S(=O)(=O)Nc2ccc(-c3ccc(N4CCCCCC4)nn3)cc2)cc1,105.0,108.0
Cc1nn(CCC(=O)NCc2cccc(Br)c2)c(=O)c2nn(-c3ccccc3)c(C)c12,103.0,105.0
COc1cccc(NS(=O)(=O)c2ccc3c(c2)N(C)C(=O)CC(=O)N3C)c1,107.0,102.0
COc1cccc(N2CCN(S(=O)(=O)c3cn(C)c(C)n3)CC2)c1,109.0,109.0
CC(=O)Nc1ccccc1-c1nc2ccccc2n(CC(=O)Nc2cccc(C)c2C)c1=O,112.0,108.0
CC(=O)N1CCc2cc(S(=O)(=O)NC(CC(C)C)C(=O)Nc3ccc(C(C)C)cc3)ccc21 (stereo unspecified),103.0,105.0
CSc1ccc(-c2nc3cccc(C)n3c2Nc2ccc3c(c2)OCO3)cc1,106.0,110.0
CCOc1ccccc1NC(=O)c1ccc2oc(=O)c(S(=O)(=O)c3ccc(F)cc3)cc2c1,104.0,106.0
CCCc1cc(C(=O)Nc2c(C)nn(Cc3ccc(Cl)c(Cl)c3)c2C)no1,107.0,111.0
Cc1cccc(C)c1OCC(=O)Nc1nonc1-c1ccc(Br)cc1,105.0,108.0
CCOc1cc(C(=O)Nc2cc3c(cc2N2CCCC2)n(C)c(=O)c(=O)n3C)cc(OCC)c1OCC,100.0,100.0
CCCOc1ccc(C2c3c(-c4c(C)cc(C)cc4O)n[nH]c3C(=O)N2CCO)cc1 (stereo unspecified),108.0,111.0
Cc1ccc(N2CC(NC(=O)c3ccc(S(=O)(=O)N4CCCCC4)cc3)CC2=O)cc1 (stereo unspecified),109.0,114.0
COc1ccc(C2C(=O)N(C3CCCCCC3)CC(=O)N2CCc2ccc(Cl)cc2)cc1OC (stereo unspecified),108.0,107.0

# Full records as entered above:
# `COc1cccc(NS(=O)(=O)c2ccc3c(c2)N(C)C(=O)CC(=O)N3C)c1` in the list: Polio RdRp inh: 107.0; Polio RdRp inh intensity: 102.0
# `O=C(Nc1ccccc1C(F)(F)F)c1ccc2oc(=O)c(S(=O)(=O)c3ccc(F)cc3)cc2c1` in the list: Polio RdRp inh: 104.0; Polio RdRp inh intensity: 106.0

# Remaining list, next part:
SMILES,Polio RdRp inh,Polio RdRp inh intensity
Cc1cc(C)cc(NC(=O)CSc2c(C(C)C)cnc3c2c(=O)n(C)c(=O)n3C)c1,104.0,106.0
CC(=O)Nc1ccc(NS(=O)(=O)c2c(C(=O)N3CCC(C)CC3)c(C)n(C)c2C)cc1,100.0,106.0
COc1ccc(OC)c(S(=O)(=O)Nc2ccc3c(c2)n(C)c(=O)n3C)c1,102.0,105.0
CCNC(=O)c1ccc(-n2c(-c3ccccc3)cc3c2CCCCC3)cc1,106.0,112.0
COc1ccc(/C=C/C(=O)Nc2nc3n(n2)C(c2ccccc2)C=C(c2ccccc2)N3)cc1 (stereo unspecified),112.0,110.0
CCOCCCn1c(SCC(=O)Nc2ccc(F)cc2)nc2c(sc3ccccc32)c1=O,106.0,102.0
CC1=C(c2ccc(C)cc2)S(=O)(=O)NC1=NCc1cccc(F)c1,100.0,109.0
CS(=O)(=O)NCCc1csc2nc(-c3ccccc3)nn12,115.0,121.0
Cc1ccc(NS(=O)(=O)c2ccc(-n3cccn3)cc2)c(Br)c1,109.0,114.0
COc1cc(NC(=O)c2cc3c(=O)n(Cc4cccs4)ccc3nc2C)cc(OC)c1OC,111.0,113.0
